# NPYLR7 ag = mosquito NPYLR7 agonism; HEK293T NPYLR7/Galpha15, GCaMP6s calcium fluorescence; activation, % at 10 µM; actives 0.15% (n = 270,000); AID 1259423; in the data active means activation above about 40%;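 further: 0% = vehicle and 100% = reference agonist at the receptor; some compounds past the cut are filed as inactive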
# NPYLR7 ag max-min = further read-out of NPYLR7 ag, marked with its call; activation, %; measured here: Max-Min RFU normalised activation; some inactives read as strong as hits;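 span of the calcium signal over five minutes; 0% = vehicle and 100% = native peptide agonist; compound fluorescence can raise it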
# Active calls of the source: *; & = joins results of further samples.
Compound	NPYLR7 ag	NPYLR7 ag max-min
Cc1ccc(C)c(OC(C)C(=O)NCCN2CCCC2)c1 (stereo not given)	1	-3
COc1ccc(-n2c(C)nnc2SCc2ccc(C(=O)NCc3ccc4c(c3)OCO4)cc2)cc1	-5	7
COCCCNC(=O)C(NC(=O)C1CC1)C1CCN(C(=O)c2ccc(OC)cc2)CC1 (stereo not given)	6	7
CCOc1ncccc1CN1CCC(C(=O)NC2CCC(C)CC2)CC1 (stereo not given)	0	-5
O=C(CCl)NCCN1C(=O)C(=Cc2ccc3c(c2)OCO3)SC1=S	-3	-8
c1nnnn1CC1CCOCO1 (stereo not given)	14	13
Cc1cccc(C(C(=O)NCc2cn3cc(C)sc3n2)N(C)C)c1 (stereo not given)	5	-7
COc1ccc(N2CCN(Cc3cc(=O)c(OC)cn3CC(=O)NC(C)(C)C)CC2)cc1	1	-1
COc1ccc(C(C2Sc3ncnn3C2=O)N2CCC3(CC2)OCCO3)cc1OC (stereo not given)	1	0
Cc1nc2ccccn2c(=O)c1NC(=O)c1ccccc1Cl	4	0

# The list goes on.
Compound	NPYLR7 ag	NPYLR7 ag max-min
CC(OCCCNC(=O)c1nccnc1N)c1ccccc1 (stereo not given)	13	5
O=c1oc2ccc3ccccc3c2cc1-c1cn2cccnc2n1	-8	-8
C[N+]1(C)C2CC[C@H]1CC(OC(=O)C(O)c1ccccc1)C2 (stereo not given in full)	-2&-5	-9&-7
CC(=O)c1cccc(CN2CCOC(Cc3ccc(F)cc3)C2)c1 (stereo not given)	2	-1
Cn1ccsc1=NC(=O)c1ccc(Cl)s1	6	12
CCOc1nc(N2CCC(NC(=O)C3CCCCC3)CC2)ncc1Br	6	1
O=c1oc2ccccc2c(Cl)c1[N+](=O)[O-]	-1	1
Cc1ccc(S(=O)(=O)NCCN)cc1	-4	-4
O=C(Nc1ccc(-c2ccc(N3CCCC3)nn2)cc1)c1ccc(Cl)cc1	0	-2
CC(NC(=O)CCl)c1ccc(S(N)(=O)=O)cc1 (stereo not given)	10	5

# (next part)
Compound	NPYLR7 ag	NPYLR7 ag max-min
COc1ccccc1-c1cncc(NC(C)=O)n1	0	0
COc1cccc(-n2cc(CN(C)C(=O)CC3(c4ccccc4OC)CC(=O)N(C)C3=O)cn2)c1 (stereo not given)	16	4
CCN(Cc1cccs1)C(=O)Cn1cnc2c1c(=O)n(C)c(=O)n2C	15&11	5&5
CC(=O)[C@H]1CCC2C3CCC4=CC(=O)CC[C@]4(C)C3CC[C@@]21C (stereo not given in full)	-5	-10
CC(NC(=O)c1ccc2c(c1)OCC(=O)N2)c1ccc(F)cc1 (stereo not given)	8	4
O=c1ccc(-c2cccs2)nn1Cc1ccncc1	13	8
O=C1CCC(C(=O)N2CCC(Cn3cccn3)CC2)CN1CC1CCCCC1 (stereo not given)	4	0
Cc1nc(C)n(CCC(=O)Nc2ccc(Br)cc2)n1	1	10
C[C@@H]1Cc2nc(-c3ccc(Cl)cc3)ncc2C(=O)N1CC(=O)OC(C)(C)C	27	20
COc1ccc(Br)cc1C1SCC(=O)N1c1ccc(O)cc1 (stereo not given)	-4	-10

# Other compounds.
Compound	NPYLR7 ag	NPYLR7 ag max-min
Cc1cc(C23CC4CC(CC(C4)C2)C3)cc(NCN2C(=O)c3ccccc3C2=O)c1C	-2	-4
O=C1NCCN(Cc2ccccc2C(F)(F)F)C1CC(=O)N1CCCO1 (stereo not given)	-6	-16
O=C1CC(N2CCCC2)C(=O)N1c1ccc(Br)cc1 (stereo not given)	-7	-11
Cc1ccc(-c2cnnc(N)n2)s1	-3	-3
COC(=O)c1sc2ncn(-n3c(C)ccc3C)c(=O)c2c1C	-1	-2
COc1ccc(-c2cc(C(=O)N/N=C\c3ccc(C#N)cc3)[nH]n2)cc1	-1	-7
CC(=O)Nc1ccc(/C=C/C(=O)Nc2ccc(F)c(Cl)c2)cc1	5	3
Cc1cc(N2C(=O)c3oc4ccccc4c(=O)c3C2c2cccc([N+](=O)[O-])c2)no1 (stereo not given)	4	3
CCN(CC)C1CCN(C(=O)c2cn(CCCc3ccccc3)nn2)C1 (stereo not given)	12	3
O=C(NCc1ncc2c(n1)CCC2)c1cc(COc2cccc(F)c2)[nH]n1	19	2

# Additional compounds follow.
Compound	NPYLR7 ag	NPYLR7 ag max-min
COc1cc(C(=O)Nc2ccc(Nc3ccc(-n4cccn4)nn3)cc2)cc(OC)c1OC	-4	-10
Cc1cc(C)c(-c2nccn2Cc2cccnc2-n2cncn2)cc1C	1	-2
Cc1ccc(Cn2nnc(C(=O)Nc3cccc(C)c3)c2N)cc1	4	11
CCCCNc1nc2c(-c3cccc(F)c3)nnn2c2ccccc12	6	1
COc1cccc(CN(C)Cc2cc3ccc(F)cc3[nH]c2=O)c1	6	-3
COc1ccccc1CC1CCCN1C(=O)C1CCC(=O)NC1 (stereo not given)	4	3
CCOc1ccc(-c2nnc(SCC#N)o2)cc1	2	2
COCCNC(=O)CN1C(=O)CSC1c1ccsc1 (stereo not given)	0	2
NC(=O)NC(=O)CC1S\C(=N/N=C\C=C\c2ccccc2)NC1=O (stereo not given)	11	11
COCc1cc(C)nc(N/N=C\c2ccccc2O)c1C#N	7	-4

# Taken from above.
# In NPYLR7 ag max-min, O=C1CCC(C(=O)N2CCC(Cn3cccn3)CC2)CN1CC1CCCCC1 (stereo not given) shows 0
# In NPYLR7 ag, CCOc1nc(N2CCC(NC(=O)C3CCCCC3)CC2)ncc1Br shows 6

# The results go on:
Compound	NPYLR7 ag	NPYLR7 ag max-min
CCOC(=O)N1CCN(C(=O)c2ccc(Cn3c(=S)[nH]c4cc5c(cc4c3=O)OCO5)cc2)CC1	-5	0
O=C(c1cnn2c(C(F)(F)F)cc(-c3ccc(F)cc3)nc12)N1CCN(Cc2ccccc2)CC1	-14	-23
COc1ccc(CCN2C(=O)N(C)C(=O)C23CCN(C/C=C/c2ccccc2OC)CC3)cc1	6	-4
CCC(C)N(Cc1ccc(N(CC)CC)cc1OS(=O)(=O)c1ccc(NC(C)=O)cc1)C(=O)c1cccc(F)c1 (stereo not given)	21	13
CCN1CCN(C(=O)N[C@@H](C(=O)N[C@@H]2C(=O)N3[C@@H]2SC(C)(C)[C@@H]3C(=O)O)c2ccccc2)C(=O)C1=O	-2&-2	-8&-8
C/C(=C\c1ccccc1)CN1CCCC1c1nc(-c2ccncc2)no1 (stereo not given)	2	-6
Cc1ccc(C(=O)NNC(=O)c2cc3cc(Cl)ccc3oc2=O)cc1	-2	-2
COCCCNC(=O)C(NC(=O)c1ccccc1)C1CCN(C(=O)NC(C)(C)C)CC1 (stereo not given)	-3	-2
COc1ccccc1C(C)N(C)C(=O)CCn1c(-c2cccs2)n[nH]c1=S (stereo not given)	4	2
COc1ccc(C2CC(=O)c3cnc(N4CCCC4)nc3C2)c(OC)c1 (stereo not given)	5	5

# Rewritten with two lines to a compound: entries from further up.
# Order of values – NPYLR7 ag, NPYLR7 ag max-min
- Cc1cc(C)c(-c2nccn2Cc2cccnc2-n2cncn2)cc1C
→ 1, -2
- Cc1ccc(Cn2nnc(C(=O)Nc3cccc(C)c3)c2N)cc1
→ 4, 11
- CCCCNc1nc2c(-c3cccc(F)c3)nnn2c2ccccc12
→ 6, 1
- COc1cccc(CN(C)Cc2cc3ccc(F)cc3[nH]c2=O)c1
→ 6, -3
- COc1ccccc1CC1CCCN1C(=O)C1CCC(=O)NC1 (stereo not given)
→ 4, 3
- CCOc1ccc(-c2nnc(SCC#N)o2)cc1
→ 2, 2
- COCCNC(=O)CN1C(=O)CSC1c1ccsc1 (stereo not given)
→ 0, 2
- NC(=O)NC(=O)CC1S\C(=N/N=C\C=C\c2ccccc2)NC1=O (stereo not given)
→ 11, 11
- COCc1cc(C)nc(N/N=C\c2ccccc2O)c1C#N
→ 7, -4
- CCOC(=O)N1CCN(C(=O)c2ccc(Cn3c(=S)[nH]c4cc5c(cc4c3=O)OCO5)cc2)CC1
→ -5, 0
- O=C(c1cnn2c(C(F)(F)F)cc(-c3ccc(F)cc3)nc12)N1CCN(Cc2ccccc2)CC1
→ -14, -23
- COc1ccc(CCN2C(=O)N(C)C(=O)C23CCN(C/C=C/c2ccccc2OC)CC3)cc1
→ 6, -4
- CCC(C)N(Cc1ccc(N(CC)CC)cc1OS(=O)(=O)c1ccc(NC(C)=O)cc1)C(=O)c1cccc(F)c1 (stereo not given)
→ 21, 13
- CCN1CCN(C(=O)N[C@@H](C(=O)N[C@@H]2C(=O)N3[C@@H]2SC(C)(C)[C@@H]3C(=O)O)c2ccccc2)C(=O)C1=O
→ -2&-2, -8&-8
- C/C(=C\c1ccccc1)CN1CCCC1c1nc(-c2ccncc2)no1 (stereo not given)
→ 2, -6
- Cc1ccc(C(=O)NNC(=O)c2cc3cc(Cl)ccc3oc2=O)cc1
→ -2, -2

# Continuation:
Compound	NPYLR7 ag	NPYLR7 ag max-min
CC1CCN(c2nc(-c3ccccc3)nc3c2CN(C(=O)Nc2c(C(C)C)cccc2C(C)C)CC3)CC1	28	25
CC1(C(=O)NS(=O)(=O)c2cccs2)CCN1C(=O)C1CCCCC1 (stereo not given)	8	3
COc1cc(CN(C)Cc2ccc(Cl)s2)cc(OC)c1O	6	4
COc1ccc(O)c(C(=O)c2cc(SC)c3nc4sc5c(c4c(=O)n3c2)CCCC5)c1	-2	-3
O=C(NCCF)c1cncn1-c1cccc(-c2ccccc2C(F)(F)F)c1	-6	-14
Cc1ccc(NC(=O)N(CCN(C)C)Cc2c(-c3ccccc3)noc2N(C)C2CCCCC2)cc1	7	10
Cc1ccc(NC(=O)CN2CCN(C(=O)CCc3ccc4c(c3)OCO4)CC2)cc1	9	8
CCOC(=O)c1cc(C2CC2)n(C2CCN(C(=O)c3c(-c4ccccc4Cl)noc3C)CC2)n1	5	4
Cc1ccc(/C=C2\SC(=S)N(C(C(=O)O)C(C)C)C2=O)o1 (stereo not given)	0	-1
COc1ccc(N2C(=O)c3ccccc3NC2c2ccc(OC)c(COc3ccccc3F)c2)cc1 (stereo not given)	11	4

# Next section:
Compound	NPYLR7 ag	NPYLR7 ag max-min
CCOC(=O)c1c(NC(=O)c2ccc(Cl)cc2Cl)sc(C(=O)Nc2ccccc2C)c1C	-9	-7
CC(C)CN(CCC(=O)Nc1ccc(F)cc1)c1nc(Cc2ccccc2)ns1	-4	-2
Cc1ccc2nc(N(CCCN(C)C)C(=O)C3COc4ccccc4O3)sc2c1 (stereo not given)	11	8
CCCCn1c(=O)c2[nH]c(C34CC5CC(CC3C5)C4)nc2n(CCCO)c1=O	-13	-12
COc1ccccc1NC(=O)Cc1noc(CN2CCCN(C(C)=O)CC2)n1	2	-1
Cc1ccc(CN2CCN(C)C3(CCN(C(=O)C4CCCC4)CC3)C2)cc1	-3	-4
CCC1COC(C)(CCC(C)C)N1C(=O)c1cc2c(=O)n3cccc(C)c3nc2s1 (stereo not given)	5&11	1&1
CCn1ccnc1CN1CCCN(c2ccccc2C)CC1	-1	-1
CCCCNC(=O)NC(=O)CN1CCC(c2ccccc2)C1 (stereo not given)	6	4
Cc1c(-c2ccccc2F)[nH]c2ccc(CNC(=O)CCN3CCCO3)cc12	-11	-11

# (list continues)
Compound	NPYLR7 ag	NPYLR7 ag max-min
CC(C)COc1nc(-c2ccc3c(c2)OCO3)n(-c2ccc(NC(=O)COCc3ccccc3)cc2)n1	1	3
Brc1ccccc1CN1CCC(Cc2ccccc2)CC1	2	12
CN(Cc1ccccc1Cl)S(=O)(=O)c1cnc2c(c1)c(=O)n(C)c(=O)n2C	0	0
COc1ccccc1CCC(=O)Nc1ccc2c(c1)CN(C1CCCC1)CC2	7	2
Cc1cc(NC(=O)CSc2nnc(CN3CCCC3)o2)no1	18	23
CCOC(=O)C1=C(C)N(CCOC)C(=O)NC1c1ccccc1 (stereo not given)	-7	0
CCOC(=O)c1c(NC(=O)Cn2cnc(C#N)n2)sc(C)c1CC	10	3
Cc1nnsc1C(=O)N1CCC2(CCCN(Cc3ccc(C(C)C)cc3)C2)C1 (stereo not given)	6	5
COc1ccc(OC)c(C(=O)N(CCn2cccn2)c2nc3c(C)cc(C)cc3s2)c1	-18	-23
CCN(CC)C(=S)SCc1ccc2c(c1)OCCO2	6	1

# Carrying on:
Compound	NPYLR7 ag	NPYLR7 ag max-min
O=C(Nc1cc2c(cc1Br)OCCO2)C1CC(=O)N(C2CCCC2)C1 (stereo not given)	1	-1
NS(=O)(=O)c1ccc(CCNC(=O)C2CCCCC2C(=O)N2CCc3c([nH]c4ccccc34)C2)cc1 (stereo not given)	-14	-15
Cc1cc(Nc2ccc3c(n2)C(=O)N(CC(=O)N[C@H](C)c2ccccc2)C3)n(C)n1	8	7
Cn1nnnc1Sc1ncccc1[N+](=O)[O-]	0	39
COCC(C)Nc1nc(-c2cc(C)n(-c3cc(C)on3)c2C)cs1 (stereo not given)	3	3
CCOC(=O)CNC(=O)Cn1c(=O)n(-c2ccccc2)c(=O)c2oc3ccccc3c21	-7	-10
CCN(CC)C(=O)Oc1ccc2c(ccn2Cc2ccccc2)c1NC(=O)C(Cl)Cl	-3	-7
CN(c1ccccc1)c1nnc(C(O)c2ccc(Oc3ccccc3)cc2)s1 (stereo not given)	-2	0
CCOc1ccc(-c2ccc(=O)n(Cc3cc(C)ccc3C)n2)cc1	12	7
CC(C)(C)OC(=O)N1CCN(CC2CCCN(S(C)(=O)=O)C2)CC1 (stereo not given)	2	-6

# The results go on.
Compound	NPYLR7 ag	NPYLR7 ag max-min
COc1ccc(S(=O)(=O)NC(=O)C2(C)CCN2C(=O)Cc2ccc(Cl)cc2Cl)cc1 (stereo not given)	17	13
CN1N=C(C(=O)Nc2ccc3c(c2)Cc2ccccc2-3)CCC1=O	5	4
Cc1cnc(NCc2ccc3c(c2)OCCCO3)nc1N(C)C	1	-1
CCC(=O)OCC(=O)c1c(N)n(C)c(=O)n(C)c1=O	7	3
CN(C1CCCCC1)S(=O)(=O)c1csc(C(N)=O)c1	-1	-3
O=C1c2ccccc2S(=O)(=O)N1c1ccc(Br)cc1	4	0
Cc1cc2oc(Br)c(CC(=O)N(C)C)c2cc1Cl	5	1
COc1ccc2c(c1)-c1sc(C(=O)NCCc3ccc(Cl)cc3Cl)cc1CC2	2	0

# Assay outcomes deposited in PubChem by Fisher Drug Discovery Resource Center.

# Not all compounds are listed. The share of hits here may be higher or lower than overall.
